ID4 SMM: ID4 (human) binding; actives 1.2% (n = 31,000); P47928; AID 624137; small molecule microarray, Flag-ID4 binding, fluorescence F/B; calls only;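 active = spot signal over background at p below 0.07 in all four prints; compounds were printed on slides so no solution concentration is given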;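 also: a binder raises fluorescence above local background on the spot; about 2 pmol printed per array spot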
Target sequence (P47928 whole entry, looked up): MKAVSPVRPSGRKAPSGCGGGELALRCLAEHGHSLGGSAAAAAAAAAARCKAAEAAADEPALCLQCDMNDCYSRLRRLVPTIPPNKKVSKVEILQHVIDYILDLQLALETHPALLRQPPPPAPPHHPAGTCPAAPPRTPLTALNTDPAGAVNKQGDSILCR
Calls only; i = inactive; + = active, no number. An excerpt; rates above refer to the full screens.

SMILES	ID4 SMM
O=C(N[C@@H]1C=C[C@@H](CC(=O)N2CCN(c3ccccc3)CC2)O[C@@H]1CO)c1ccccc1	i
Cc1c(C(=O)NC2CCS(=O)(=O)C2)oc2ccccc12 (stereo not drawn)	i
CS(=O)(=O)NN1C(=O)c2ccccc2NC12CCCCC2	i
O=C(Cc1ccccc1[N+](=O)[O-])NCc1ccco1	i
CCCc1cn(CC[C@@H]2CC[C@H](NC(=O)C3CCCCC3)[C@H](CO)O2)nn1	i
O=C(N[C@H]1CC[C@@H](CC(=O)N2CCOCC2)O[C@@H]1CO)c1ccccn1	i
COc1cccc(-c2cc(C(F)(F)F)n3nc(C(=O)Nc4cc(C)nn4-c4ccccc4)cc3n2)c1	i
CCCNC(=O)[C@@]1(c2ccc([N+](=O)[O-])cc2)CC(=O)N(CC23CC4CC(CC(C4)C2)C3)[C@@H]1c1ccc(CO)cc1I	i
CC(=O)Nc1cc(NC(=O)CCCC(=O)O)ccc1Cl	i
O=C(CC1CC1)Nc1ccc2c(c1)[C@H]1C[C@@H](CC(=O)N3CCc4ccccc4C3)O[C@@H](CO)[C@H]1O2	i
CCOC(=O)c1cccc(NC(=O)COc2ccc(Br)cc2)c1	i
C[C@@H]1CN([C@@H](C)CO)S(=O)(=O)c2ccc(C#Cc3cccc(F)c3)cc2O[C@@H]1CN(C)C	i
C[C@@H]1CN([C@@H](C)CO)C(=O)c2ccccc2-c2ccccc2CO[C@H]1CN(C)C(=O)[C@@H]1CCCN1C	i
Cc1ccc2ccc(C(Nc3ccccn3)c3c(F)cccc3Cl)c(O)c2n1 (stereo not drawn)	i
CCn1c(SCC(=O)Nc2cccc(Br)c2)nnc1-c1ccc(OC)cc1	i
CCOC(=O)c1c(NC(=O)C2CC(c3cccc(Br)c3)=NO2)sc(C(=O)OC)c1C (stereo not drawn)	i
COCCNC(=O)C[C@H]1C=C[C@H](NC(=O)NC2CCCCC2)[C@H](CO)O1	i
C[C@H](CO)N1C[C@H](C)[C@@H](CN(C)Cc2ccccc2F)Oc2ncc(Br)cc2C1=O	i
Cc1cc(C)c2nc(-c3ccccn3)cc(C(=O)NCc3ccc(S(N)(=O)=O)cc3)c2c1	i
COCC(=O)N[C@@H]1CC[C@H](CC(=O)N2CCCCC2)O[C@@H]1CO	i
O=C(C[C@H]1C[C@H]2c3cc(NC(=O)c4ccc5c(c4)OCO5)ccc3O[C@H]2[C@H](CO)O1)NC1CCCCC1	i
COc1ccc(OC)c(NC(=O)CN(C)S(=O)(=O)c2c(C)cc(C)cc2C)c1	i
O=C(Cn1ccc([N+](=O)[O-])n1)NCc1ccccn1	i
CCCc1cn(CC[C@@H]2CC[C@H](NC(=O)C3CCC3)[C@H](CO)O2)nn1	i
COc1cccc(S(=O)(=O)N[C@@H]2CC[C@@H](CC(=O)NC3CCC3)O[C@@H]2CO)c1	i
C[C@H]1CN([C@@H](C)CO)C(=O)c2cc(-c3ccncc3)cnc2O[C@@H]1CN(C)C(=O)CN1CCOCC1	i
CSc1ccccc1NC(=O)Cn1c([N+](=O)[O-])cnc1C	i
C[C@H]1CN([C@@H](C)CO)C(=O)c2cc(C3=CCCC3)cnc2O[C@@H]1CN(C)C(=O)c1ccc(F)cc1	i
C[C@H]1CN([C@@H](C)CO)C(=O)c2ccccc2-c2ccccc2CO[C@@H]1CN(C)C(=O)C1CC1	i
CCc1nc(SCC(=O)N(c2ccccc2)c2ccccc2)n[nH]1	i
CCCC#Cc1ccc2c(c1)O[C@H](CN(C)C(=O)NC(C)C)[C@H](C)CN([C@H](C)CO)S2(=O)=O	i
O=C(N/N=C/c1ccccc1O)c1ccccc1O	i
C[C@@H]1CN([C@@H](C)CO)S(=O)(=O)c2ccc(C#Cc3cccnc3)cc2O[C@H]1CN(C)C(=O)Nc1ccc2c(c1)OCO2	i
O=C(C[C@H]1CC[C@@H](NC(=O)C2CCOCC2)[C@@H](CO)O1)NCC1CCCCC1	i
C[C@H](CO)N1C[C@H](C)[C@H](CN(C)CC2CC2)Oc2ccc(NC(=O)CCC(F)(F)F)cc2CC1=O	i
C[C@@H]1CN([C@H](C)CO)C(=O)c2cc(C#Cc3ccccn3)cnc2O[C@H]1CN(C)CC1CCOCC1	i
COc1ccccc1C(=O)Nc1sc2c(c1C(=O)NCc1ccco1)CCCC2	i
C[C@H](CO)N1C[C@H](C)[C@H](CN(C)Cc2cccnc2)Oc2ncc(C3=CCCCC3)cc2C1=O	i
C[C@H](CO)N1C[C@H](C)[C@@H](CN(C)Cc2ccncc2)Oc2ncc(C3=CCCCC3)cc2C1=O	i
Cn1nnnc1SCC(=O)Nc1ccc(Br)cc1Cl	i
COc1ccc(NC(=O)CSc2cc(C)c3cccc(C)c3n2)cc1	i
CCOC(=O)n1ccn(C)c1=S	i
CCn1c(SCc2nc3ccccc3c(=O)[nH]2)nnc1-c1ccccc1F	i
C[C@@H]1CN([C@H](C)CO)S(=O)(=O)c2ccc(C#Cc3ccccc3)cc2O[C@H]1CN(C)S(C)(=O)=O	i
O=C(Cn1cnc2ccccc2c1=O)Nc1ccccc1[N+](=O)[O-]	i
COc1ccc(NC(=O)CCSc2ccc([N+](=O)[O-])cc2)cc1	i
CC(=O)c1cccc(NC(=O)CN(C)S(=O)(=O)c2ccc3ccccc3c2)c1	i
CC(C)(C)C1CCc2c(sc(NC(=O)CSc3n[nH]c(-c4ccncc4)n3)c2C#N)C1 (stereo not drawn)	i

In the list so far, three contain a thiophene ring, fused or not.
SMILES	ID4 SMM
CCOC(=O)c1c(NC(=O)C2CC(c3cccc(Br)c3)=NO2)sc(C(=O)OC)c1C (stereo not drawn)	i
COc1ccccc1C(=O)Nc1sc2c(c1C(=O)NCc1ccco1)CCCC2	i
CC(C)(C)C1CCc2c(sc(NC(=O)CSc3n[nH]c(-c4ccncc4)n3)c2C#N)C1 (stereo not drawn)	i

4 structures already listed, arranged by SMILES length, ascending:
SMILES	ID4 SMM
CCOC(=O)n1ccn(C)c1=S	i
O=C(Cn1cnc2ccccc2c1=O)Nc1ccccc1[N+](=O)[O-]	i
C[C@H](CO)N1C[C@H](C)[C@@H](CN(C)Cc2ccncc2)Oc2ncc(C3=CCCCC3)cc2C1=O	i
C[C@@H]1CN([C@H](C)CO)S(=O)(=O)c2ccc(C#Cc3ccccc3)cc2O[C@H]1CN(C)S(C)(=O)=O	i

Returning to the listing; the 3 compounds before the break are reprinted first.
SMILES	ID4 SMM
COc1ccc(NC(=O)CCSc2ccc([N+](=O)[O-])cc2)cc1	i
CC(=O)c1cccc(NC(=O)CN(C)S(=O)(=O)c2ccc3ccccc3c2)c1	i
CC(C)(C)C1CCc2c(sc(NC(=O)CSc3n[nH]c(-c4ccncc4)n3)c2C#N)C1 (stereo not drawn)	i
COc1ccc(-c2ccc3c(c2)O[C@@H](CN(C)CC2CC2)[C@@H](C)CN([C@H](C)CO)S3(=O)=O)cc1	i
COc1ccc([N+](=O)[O-])cc1NC(=O)C(C)N(c1ccc(Cl)cc1)S(C)(=O)=O (stereo not drawn)	i
Cc1ccc(-c2nnc3c4ccccc4c(C)nn23)cc1S(=O)(=O)N1CCOCC1	i
CC(C)C(NS(=O)(=O)c1ccc(F)c(Cl)c1)C(=O)O (stereo not drawn)	i
COc1ccc(Cl)cc1N(CC(=O)Nc1ccccc1Br)S(C)(=O)=O	i
CCN(CC(=O)Nc1ccc(Br)cc1F)S(=O)(=O)c1ccc2ccccc2c1	i
O=C(Cn1cnc2ccccc2c1=O)Nc1cccc(Cl)c1Cl	i
COCC(=O)Nc1sc2c(c1C(=O)OC)C(C(=O)OC)CC2 (stereo not drawn)	i
C=CCNC(=O)[C@@H]1[C@H]2C(=O)O[C@H](c3ccccc3)[C@H](c3ccccc3)N2[C@H](c2ccccc2OCCO)[C@@]12C(=O)N(C(=O)OCCOC)c1ccc(C#CC3=CCCCC3)cc12	i
C[C@H](CO)N1C[C@H](C)[C@H](CN(C)C)OCc2ccccc2-c2ccccc2C1=O	i
C[C@@H]1CN([C@H](C)CO)C(=O)c2cc(-c3cccc(C(=O)N(C)C)c3)cnc2O[C@@H]1CN(C)CC1CC1	i
O=C(CSc1nc2ccccc2c(=O)n1-c1cccc(Cl)c1)Nc1cccc(Cl)c1	i
CCn1c(SCC(=O)c2ccc(C)cc2)nnc1-c1ccncc1	i
CCCN(C)C[C@@H]1Oc2cc(C3=CCCCC3)ccc2S(=O)(=O)N([C@@H](C)CO)C[C@@H]1C	i
CC(=O)N(C)C[C@@H]1Oc2cc(-c3ccccc3C)ccc2S(=O)(=O)N([C@H](C)CO)C[C@@H]1C	+
C[C@@H]1CN([C@H](C)CO)C(=O)c2cc(C#CC3CC3)cnc2O[C@H]1CN(C)C	i
Cc1c(Br)c([N+](=O)[O-])nn1C(C)C(=O)Nc1c(C)n(C)n(-c2ccccc2)c1=O (stereo not drawn)	i
C[C@H](CO)N1C[C@H](C)[C@@H](CN(C)CC2CCCC2)OCc2cnnn2CCCC1=O	i
Cc1ccc(N(C(C)C(=O)Nc2ccccc2C(=O)N2CCOCC2)S(C)(=O)=O)cc1C (stereo not drawn)	i
Cc1ccc(CN(C)C[C@@H]2OCc3cn(nn3)CCCC(=O)N([C@@H](C)CO)C[C@@H]2C)cc1	i
O=C(C[C@H]1CC[C@@H](NC(=O)Nc2ccc(C(F)(F)F)cc2)[C@H](CO)O1)NCCN1CCCC1	i
COc1ccc(-c2nnc3c4ccccc4c(C)nn23)cc1S(=O)(=O)NCC1CCCO1 (stereo not drawn)	i
C[C@H]1CN([C@@H](C)CO)C(=O)c2cc(C3=CCCC3)cnc2O[C@H]1CN(C)Cc1cccnc1	i
O=C(CCCN1C(=O)c2cccc3cccc(c23)C1=O)Nc1ccccc1C(F)(F)F	i
O=S(=O)(Nc1ncccn1)c1ccc(NC(=S)N2CCN(c3ncccn3)CC2)cc1	i
CC(C)C#Cc1cnc2c(c1)C(=O)N([C@H](C)CO)C[C@H](C)[C@@H](CN(C)C(=O)c1cccc(F)c1)O2	i
O=C(C[C@@H]1CC[C@H](NS(=O)(=O)c2ccc(F)cc2)[C@@H](CO)O1)NCc1ccc(Cl)c(Cl)c1	i
Cc1ccc(-n2cnnn2)c(S(=O)(=O)N2CCOCC2)c1	i
C[C@@H]1CN([C@H](C)CO)C(=O)c2cc(C#CCC3CCCC3)cnc2O[C@H]1CN(C)C(=O)CC1CC1	i
C[C@H]1CN([C@@H](C)CO)C(=O)c2cc(C3=CCCCC3)cnc2O[C@@H]1CN(C)Cc1ccccn1	i
CCn1c(SCc2nc(-c3cccs3)no2)nnc1-c1c[nH]c2ccccc12	i
COc1ccc(NC(=O)C2CC(=O)n3c(nc4ccccc43)N2)cc1 (stereo not drawn)	i
CNC[C@@H]1OCc2ccccc2-c2ccccc2C(=O)N([C@@H](C)CO)C[C@@H]1C	i
CCCN(C)C[C@H]1Oc2ncc(Br)cc2C(=O)N([C@H](C)CO)C[C@H]1C	i
O=C(NCc1ccco1)c1ccc(NC(=O)c2ccco2)cc1	i
Cc1nnc(SCC(=O)Nc2ccc(Br)cc2Cl)s1	i
CC(C)(C)C1CCc2c(sc(NC(=O)CSc3n[nH]c(-c4ccco4)n3)c2C#N)C1 (stereo not drawn)	i
Cc1cc(Cl)c(S(=O)(=O)Nc2cccc(C(F)(F)F)c2)cc1OCC(N)=O	i
CCOC(=O)c1sc(NC(=O)CSc2nc3c(cc2C#N)CCC3)c(C#N)c1C	i
Cc1sc2ncnc(SCC(=O)Nc3ccccc3)c2c1-c1ccccc1	i
COC(=O)c1cc(OC)c(OC)cc1NC(=O)CN1CCOCC1	i
Cc1ccc(-c2cnc3c(c2)C(=O)N([C@H](C)CO)C[C@@H](C)[C@H](CN(C)C(=O)c2ccccc2)O3)cc1	i
O=C(C[C@H]1CC[C@H](NC(=O)c2ccncc2)[C@H](CO)O1)NCC1CC1	i
Cc1cccc(CN(C)C[C@@H]2OCc3cnnn3CCCC(=O)N([C@@H](C)CO)C[C@H]2C)c1	i
C[C@H]1CN([C@@H](C)CO)S(=O)(=O)c2ccc(C#CCN(C)C)cc2O[C@@H]1CN(C)Cc1ccc2c(c1)OCO2	i
CCOC(=O)c1ccc(NC(=O)CSc2nc3sc4c(c3c(=O)[nH]2)CCC4)cc1	i
CN1CCN(C(=O)C[C@H]2CC[C@@H](NS(=O)(=O)c3cccc(F)c3)[C@@H](CO)O2)CC1	i
Cc1[nH]ccc2c1[nH]c1cc(=O)ccc12	i
O=[N+]([O-])c1ccccc1OCC(O)CNC1CCCC1 (stereo not drawn)	i
Cc1ccc(C(=O)C2C(=O)C(=O)N(Cc3cccnc3)C2c2cccc(Oc3ccccc3)c2)o1 (stereo not drawn)	i
O=C(O)C[C@H]1C[C@H]2c3cc(NC(=O)Nc4ccc(F)cc4)ccc3O[C@H]2[C@@H](CO)O1	i
C[C@H]1CN([C@@H](C)CO)C(=O)c2cccc(N(C)C)c2O[C@H]1CN(C)C(=O)Nc1ccc(F)cc1	i
Clc1ccc2nc(NC3=NCN(CCN4CCOCC4)CN3)nc(-c3ccccc3)c2c1	i
CCNC(=O)C[C@@H]1C=C[C@@H](NC(=O)C2CC2)[C@@H](CO)O1	i
O=C(C[C@H]1CC[C@H](NC(=O)c2cccnc2)[C@@H](CO)O1)NCc1ccc(Cl)c(Cl)c1	i
O=C(CC1NCCNC1=O)Nc1ccccc1Cl (stereo not drawn)	i
O=C(CCCN1C(=O)c2ccccc2C1=O)Nc1ccc(Nc2ccccc2)cc1	i
CSc1nnc(Cc2ccccc2)c(=O)[nH]1	i
O=C(Cn1cnc2ccccc2c1=O)Nc1ccccc1Cl	i
O=C(NCC[C@H]1CC[C@H](NC(=O)C2CCC2)[C@H](CO)O1)c1ccc(F)cc1	i
CCN(CC(=O)Nc1cccc(C(C)=O)c1)S(=O)(=O)c1ccc(F)cc1	i
COc1cccc(S(=O)(=O)N[C@@H]2CC[C@@H](CC(=O)NC3CCC3)O[C@H]2CO)c1	i
Cc1ccc2nc(-c3cccnc3)cc(C(=O)Nc3ccc(S(=O)(=O)NC(C)(C)C)cc3)c2c1	i

By substructure, those above with a cyano group (3)
SMILES	ID4 SMM
CC(C)(C)C1CCc2c(sc(NC(=O)CSc3n[nH]c(-c4ccncc4)n3)c2C#N)C1 (stereo not drawn)	i
CC(C)(C)C1CCc2c(sc(NC(=O)CSc3n[nH]c(-c4ccco4)n3)c2C#N)C1 (stereo not drawn)	i
CCOC(=O)c1sc(NC(=O)CSc2nc3c(cc2C#N)CCC3)c(C#N)c1C	i

Compound activity deposited in PubChem BioAssay by Broad Institute.
